Sfp PPTase inh: blocks B. subtilis Sfp PPTase activity; Potency, µM, inactives show max response, negative = inhibition, actives largely listed as inhibitors; 3.5% of 310,000 active; Q9F4F7; AID 1490; Biochemical Sfp PPTase activity, qHTS; active = well fitted inhibition curve with a large enough effect; inconclusive = small, poorly fitted or top-dose-only effect, or another doubt; inactive = no such curve, though single readings can be large or run the other way;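 note: the enzyme is Sfp with the accession as filed and its product quenches rhodamine fluorescence; potency is the fitted concentration of half-maximal effect; 0% = enzyme reaction without inhibitor and -100% = no enzyme wells; top concentration of the series not given in the record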
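Compounds were incubated with enzyme (final 15 nM) for 15 min at room temperature before substrate addition started the reaction. Fluorescence at 525 nm excitation, 598 nm emission was recorded immediately and after 30 minutes.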
D2 PAM: human D2 receptor positive allosteric modulation. P14416. DiscoveRx D2 beta-arrestin cells, luminescence, 90 min; 100% = 57 uM dopamine signal. potentiation, % (no concentration beside the values). 0.23% of 360,000 active. AID 624464; active = potentiation of 50% or more; inconclusive = 30% to 50%; inactive = 30% or less;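 note: compound concentration not given in the record; tested on top of an EC20 dose of dopamine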
Target sequence (P14416 whole entry, looked up): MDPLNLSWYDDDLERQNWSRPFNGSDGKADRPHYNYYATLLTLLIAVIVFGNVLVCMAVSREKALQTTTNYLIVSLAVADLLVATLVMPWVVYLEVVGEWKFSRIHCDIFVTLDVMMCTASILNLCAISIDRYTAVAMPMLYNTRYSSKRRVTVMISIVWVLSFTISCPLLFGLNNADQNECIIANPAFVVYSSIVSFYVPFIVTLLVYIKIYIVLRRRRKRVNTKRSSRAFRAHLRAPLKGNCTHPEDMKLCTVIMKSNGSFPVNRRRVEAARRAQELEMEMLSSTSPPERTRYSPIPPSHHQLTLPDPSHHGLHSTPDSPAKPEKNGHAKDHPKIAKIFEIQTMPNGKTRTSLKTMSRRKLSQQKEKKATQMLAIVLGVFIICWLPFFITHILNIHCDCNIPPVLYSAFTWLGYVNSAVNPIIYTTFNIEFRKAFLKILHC
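PathHunter D2 cells, attached overnight at 37 deg C, received compound in DMSO plus dopamine at EC20 (50 nM final) for 90 min at 37 deg C. Beta-arrestin recruitment was read as luminescence after 1 h with detection reagent at ambient temperature.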
PINK1 modulator: modulators of PINK1 expression; PINK1 immunofluorescence, high-content cytometry, 24 h; Potency, µM (doses to about 76.6 µM), without a hit: at the top dose activation (PINK1 increase), most hits filed as activators; 0.2% of 410,000 active; AID 624263; active = well fitted activation curve with a large enough effect; inconclusive = small, poorly fitted or top-dose-only effect; inactive = flat fitted curve, though single readings scatter; cell line not stated here;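 note: potency is the fitted concentration of half-maximal effect; % of control where 0% means no effect; nearly all actives have a fitted effect of over 65% in size; a mitochondrial uncoupler was the plate control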
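Measures PINK1 amount and localization on or inside mitochondria by immunofluorescence. Stable cells get compounds at 5 concentrations for 24 hours before fixation and staining; CCCP controls included.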
TRPV1 potentiator: human TRPV1 potentiation; 0.02% of 320,000 active; Q8NER1; AID 540277; TRPV1-expressing cells, Fluo-8 calcium influx, capsaicin EC20 potentiation; host cell line not named in the record; control for the full effect not named in the record; potentiation, % at 8.33 µM; active means potentiation above 80%; inconclusive means 30% to 80%; inactive means below 30%; note: 0% is about no effect
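Fluo-8 calcium influx in TRPV1-expressing cells, kinetic read (ex 480/em 520 nm). Compound added and read 3 min for agonist activity, followed by capsaicin at EC20 final and 2 min further read for enhancement.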
CtBP-E1A inh: CtBP/E1A binding inhibition. activity change, % (no concentration beside the values). AID 651724. 0.49% of 340,000 active. AlphaScreen GST-E1A/His-CtBP binding, 1536-well; hits give low values; control for the full effect not named in the record; in the data active means activity change below about -65%; inconclusive means about -30% to -65%; inactive means above about -30%; note: % is set by controls: 0 for no effect and ±100 for the full control effect; compound concentration not given in the record
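In 5 uL wells, 23 nL compound meets equimolar GST-E1A and His-CtBP (5X stock 125 nM each) for 2 h, 37 °C. Beads (5X, 50 ug/mL) then 1 h, 37 °C, dark.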
Six1-Eya2 inh: inhibitors of human Six1/Eya2 interaction; Q15475+O00167; AlphaScreen GST-Six1/His-Eya2 binding, biochemical; hits give low values; control for the full effect not named in the record; activity change, % (concentration not given with the values); 0.56% of 360,000 active; AID 651725; in the data active = activity change below about -65%; inconclusive = about -30% to -65%; inactive = above about -30%; note: % is set by controls: 0 for no effect and ±100 for the full control effect
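GST-Six1 + His-Eya2 (5X stock: 250/500 nM); Tris pH 8.0, 300 mM NaCl, 0.05% BSA, 0.02% Tween 20; GSH donor/Ni acceptor beads; 1 h 37 °C dark; AlphaScreen readout.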
D2 ag: human D2 receptor agonism in beta-arrestin assay | P14416 | DiscoveRx PathHunter D2 beta-arrestin, luminescence, 90 min; 100% = 57 uM dopamine signal | activation, % (no concentration beside the values) | 0.084% of 360,000 active | AID 624465; in the data active = activation above about 40%; inconclusive = about 15% to 40%; inactive = below about 15%; note: compound concentration not given in the record; the text of the record calls up to 30% inactive
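DiscoveRx PathHunter D2 beta-arrestin cells (2,100/well) attached overnight, then compound-stimulated 90 min at 37 C in HBSS/10 mM HEPES/0.1% Tween-20 buffer; beta-galactosidase complementation read by luminescence after 1 h at ambient temperature. Dopamine 57 uM final (EC100) as control.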
* marks the source's active call; other numbers are inactive results; ? = inconclusive; . = not tested or not shown; & = joins results of further samples; [ ] = another dose, or the depositor's remark.

structure	PINK1 modulator	Six1-Eya2 inh	D2 ag	CtBP-E1A inh	TRPV1 potentiator	D2 PAM	Sfp PPTase inh
COc1ccc(-n2nc3c(N4CCC(C(=O)NCc5cccc(C)c5)CC4)nnc(C)c3c2C)cc1	0.1%	25	-1.4	.	-9	-5	-19%
CCOc1ccccc1C(c1c(C)n(C)n(-c2ccccc2)c1=O)c1c(C)n(C)n(-c2ccccc2)c1=O	1.2%	5	-4.5	.	5	-25	14%
O=C(Nc1ccc(F)cc1)c1ccc(C(=O)N2CCCC(O)C2)cc1 (stereo not drawn)	-0.8%	12	-1.3	-11	5	-6	.
CCN(CC(=O)Nc1ccc(NC(C)=O)cc1)C(=O)COc1ccccc1Cc1ccccc1	1.7%	2	-0.5	-2	8	-7	6%
CC[C@]12c3[nH]c4cc(CCC(=O)N(C)C)ccc4c3CCN1C(=O)[C@@H](CC(=O)NCCCN(C)C)C[C@@H]2C(=O)N1CCN(C(=O)C2CC2)CC1	-1.1%	3	-2.6	2	.	-6	.
CN(C)c1nc(NCc2ccccc2)nc(N/N=C/c2ccc(Br)cc2)n1	10%	-2	-5.8	.	4	-7	28%
O=C(O)c1ccc(N/N=C/c2ccc3nccnc3c2)cc1	-0.2%	-25	-3.9	-11	2	-15	-2%
COc1ccc(-c2cc(C(=O)Nc3ccc4c(c3)OCO4)no2)cc1	2.6%&0.5%	-20	-7.4	-1	24	-12	12%
COc1nnc(-c2ccc(C)c(S(N)(=O)=O)c2)c2ccccc12	0.4%	-19	-2.9	.	4	-13	19%
CCN=C1S/C(=C\c2cc(Cl)c(OC)c(OC)c2)C(=O)N1CC	2.7%	-7	-12	0	3	-26	8%
CCOc1ccc(C(=O)NCC(=O)N2CCN(c3ccc(C(F)(F)F)cn3)CC2)cc1	0.3%	0	10.0	2	8	-2	.
O=C(O)c1ccc(-n2cccc2/C=C2/SC(=O)N(CC(=O)N3CCCC3)C2=O)cc1	0.3%	?	0.9	1	-4	-16	-8%

Continued.
structure	PINK1 modulator	Six1-Eya2 inh	D2 ag	CtBP-E1A inh	TRPV1 potentiator	D2 PAM	Sfp PPTase inh
O=C(NOCc1ccccc1)c1ccccc1	-0.4%	10	-1.5	3	5	-8	.
CCOC(=O)C1CCN(Cc2c(O)c3ccccc3oc2=O)CC1	5.1%	-2	5.0	-3	15	0	17%
Cc1ccc(-c2nnn(CC(=O)N(CC(=O)NC3CCCCC3)c3cccc(F)c3)n2)o1	1.0%	-11	-1.4	-13	2	-8	20%
CC1=C(C(=O)N(C(C)C)C(C)C)CC(CC(=O)NC2CC2)C(=O)N1CCCN1CCCC1=O (stereo not drawn)	0.1%	17	-3.5	29	.	1	.
CC1CCCC(NC(=O)Cn2cc(C(F)(F)F)cc(Cl)c2=O)C1C (stereo not drawn)	0.1%	4	-2.3	.	-3	-2	.
O=Cc1cc2ccccc2nc1SCc1ccc(Cl)c(Cl)c1	?	5	0.0	8	10	-6	-18%
C[C@H]1CN([C@@H](C)CO)C(=O)CCCn2nncc2CO[C@H]1CN(C)C(=O)c1ccc2ccn(C)c2c1	0.5%	2	-10	-2	.	-3	.
Cc1ccc(CSc2ncnc3ccccc23)cc1	1.1%	5	-5.6	-10	-11	-11	-8%
NC(=O)C1CCN(C(=O)c2ccc3c(=O)n(Cc4ccco4)c(SCC(=O)c4ccccc4)nc3c2)CC1	-1.4%	0	0.2	-16	8	-4	-2%
CN(C(=O)c1cccc(NC(=O)Cc2ccc(NC(=O)C3CCCN(C(=O)C4CCCCC4)C3)cc2)c1)C1CCCC1 (stereo not drawn)	-0.6%	-2	0.2	-23	.	1	.
COc1ccc(CN2CC(C(=O)NCCCN3CCCCCC3)CC2=O)cc1 (stereo not drawn)	-0.2%	2	0.9	-1	-2	18	6%
O=C(OCc1cn([C@H]2C[C@H](c3ccccc3)N(Cc3cccs3)C[C@@H]2O)nn1)c1ccccc1	-0.1%	-23	-3.3	-6	.	-2	.

Other structures:
structure	PINK1 modulator	Six1-Eya2 inh	D2 ag	CtBP-E1A inh	TRPV1 potentiator	D2 PAM	Sfp PPTase inh
CCC(=O)Nc1cc2c3c(c1)CCN3C(=O)CC2	3.5%	6	-4.5	.	-11	-7	15%
S=C(NCc1ccc(Cl)cc1)Nc1ccccc1	3.8%	-2	1.4	4	-18	11	0%
CCn1c(N)c(C(N)=O)sc1=S	-0.5%	-7	-3.4	1	15	-8	14µM*
COc1cccc(/C=C/C(=O)OCC(=O)N2CCN(S(=O)(=O)c3ccc(Cl)cc3)CC2)c1	0.6%	4	-3.7	-6	-1	-6	7%
CCc1ccc(C(=O)NC(=S)Nc2ccc(N3CCOCC3)cc2)cc1	8.8%	-13	-5.2	.	7	-12	1%
O=C(CN1C(=O)NC2(CCCc3ccccc32)C1=O)N1CCN(c2cccc(C(F)(F)F)c2)CC1 (stereo not drawn)	5.4%	-1	-5.5	-1	-1	1	.
COc1ccc(/C=N/NC(=O)c2ccc(F)cc2)cc1CN1CCc2cc(OC)c(OC)cc2C1C (stereo not drawn)	0.0%	-4	-6.7	-13	-6	-16	-3%
CCN(CC)CCCN(C(=O)c1ccc(F)cc1)c1nc(-c2ccc(OC)cc2)cs1	1.3%	-20	3.9	-17	23	-23	-4%
COc1cc(C)ccc1OCCCCNCc1ccccc1	0.0%	3	1.9	.	-4	-79	-12%
COc1ccc(N2CCN(/C(=N\S(=O)(=O)c3ccc(C)cc3)Nc3nc(C)cc(C)n3)CC2)cc1	-1.9%	-9	-1.3	-4	4	-2	14%
CCn1cc(C(=O)OCC(=O)Nc2ccccc2OC(F)F)c(=O)c2ccc(C)nc21	3.4%	6	1.3	6	.	-7	.
Cc1c(NC(=S)N/N=C/c2ccc([N+](=O)[O-])cc2O)c(=O)n(-c2ccccc2)n1C	-1.3%	-84*	-9.5	-93*	-4	-24	31%[activator]

More compounds
structure	PINK1 modulator	Six1-Eya2 inh	D2 ag	CtBP-E1A inh	TRPV1 potentiator	D2 PAM	Sfp PPTase inh
Cn1c(SCC(=O)CC(=O)Nc2ccccc2)nnc1-c1ccc(O)cc1	7.6%[38.3 µM]	-7	-0.2	2	0	-21	8%
COc1cccc(C(=O)NNC(=O)C(=O)Nc2ccc(OC)cc2OC)c1	0.5%	6	5.3	-2	8	-2	11%
O=C(Nc1ccc(Cl)cc1)N1CCCN(Cc2ccccc2F)C1	-2.8%[38.3 µM]	-1	-2.3	1	2	-13	20%
O=C(NCCS(=O)(=O)NC1CCCC1)c1ccccc1	0.8%	8	-0.3	2	-5	1	.
c1ccc(C(c2ccccc2)N2CCN(Cc3nc(-c4cnccn4)no3)CC2)cc1	0.8%	13	-1.8	0	-1	-9	18%
CCc1noc(C)c1C(=O)OCC(=O)Nc1ccc2c(c1)OCO2	-0.4%	0	-4.1	.	.	-3	.
CCCSc1nc(O)c(C(c2ccc(OC)c(O)c2)c2c(O)nc(SCCC)n(C)c2=O)c(=O)n1C	0.7%	-6	2.8	8	0	-5	?
COc1ccc(C(CNC(=O)c2cc(S(=O)(=O)N3CCCC3)ccc2Cl)N2CCCC2)cc1 (stereo not drawn)	-0.7%	2	-4.0	.	-7	-16	.
CCOC(=O)N1CCN(C(=O)Cc2c(C(=O)O)n(C)c3ccccc23)CC1	0.7%	16	1.8	0	-14	5	-2%
CCOC(=O)Cn1c(=O)cnc2ccccc21	-0.1%	5	-0.3	3	3	-14	3%
CCCCCc1cccnc1	2.0%	11	-0.2	0	?	-5	12%
Cc1cccc(NC(=O)CSc2nc(C)nc3c2c(=O)n(C)c(=O)n3C)c1	-0.9%	-2	-1.4	-4	7	1	-4%

The list continues:
structure	PINK1 modulator	Six1-Eya2 inh	D2 ag	CtBP-E1A inh	TRPV1 potentiator	D2 PAM	Sfp PPTase inh
CC(C)C(C)(C#N)NC(=O)CSc1nnc(-c2ccccc2)o1 (stereo not drawn)	-1.8%	2	-0.7	1	-2	-2	?
CC(C)(C)NC(=O)CCN(/N=C/c1ccc([N+](=O)[O-])o1)C1=NS(=O)(=O)c2ccccc21	-2.2%	-88*	4.7	-74*	-7	?	-10%
COc1ccc(-c2cc(C(F)(F)F)nc(N3CCN(c4ccc(F)cc4)CC3)n2)cc1OC	7.0%	9	-4.1	-2	-14	-6	17%
Cc1c(N=C2SCC(=O)N2/N=C/c2ccccc2)c(=O)n(-c2ccccc2)n1C	0.2%	-6	0.8	24	5	-8	19%
OC(CN1C2=NCCN2c2ccccc21)c1ccc(Br)cc1 (stereo not drawn)	0.6%	5	-4.5	8	0	-11	9%
O=C(Nc1c2c(nn1-c1ccc(F)cc1)CS(=O)(=O)C2)c1ccc2c(c1)OCO2	-1.6%	3	-6.6	12	-1	0	14%
O=C(c1cccs1)N1CCCC(c2nc(-c3ccc(F)cc3)no2)C1 (stereo not drawn)	11%[38.3 µM]	1	-0.7	8	27	-10	8%
CCOC(=O)C1CCCCN1C(=O)CCc1c(C)nc2ncnn2c1C (stereo not drawn)	0.8%	-2	-1.6	3	2	-8	-1%
CCC(=O)Nc1nc(NCc2ccccc2OC)n(-c2ccccc2)n1	0.5%	0	6.7	.	-6	-7	10%
COC(=O)c1ccccc1NC(=O)c1ccc(COc2ccccc2)o1	-1.8%	20	-1.7	18	-14	1	?
Cc1cc(C)cc(Nc2cc(C)nc3ncnn23)c1	0.0%	2	-1.3	-1	.	-19	.
O=C(CN1CCCC1)Nc1ccc(Cl)cc1C(F)(F)F	-0.2%	-3	-6.2	.	1	-17	2%

(further entries)
structure	PINK1 modulator	Six1-Eya2 inh	D2 ag	CtBP-E1A inh	TRPV1 potentiator	D2 PAM	Sfp PPTase inh
CC(=O)N1c2ccccc2Sc2ccccc21	0.6%	-2	-3.0	.	15	-28	23%
COc1cccc(/C=N/NC(=S)NC2CC3CC2C2C=CCC32)c1O (stereo not drawn)	4.2%	-5	1.1	-9	-5	-5	22%
CS(=O)(=O)N1CCCC(C(=O)NCc2ccccc2Cl)C1 (stereo not drawn)	.	0	-3.3	9	-19	-8	-4%
CCOC(=O)c1nnsc1NC(=O)Nc1ccc(OC)cc1	3.8%	3	-3.4	4	9	-7	13%

Retrieved one by one from the list above:
structure	PINK1 modulator	Six1-Eya2 inh	D2 ag	CtBP-E1A inh	TRPV1 potentiator	D2 PAM	Sfp PPTase inh
NC(=O)C1CCN(C(=O)c2ccc3c(=O)n(Cc4ccco4)c(SCC(=O)c4ccccc4)nc3c2)CC1	-1.4%	0	0.2	-16	8	-4	-2%
CCOC(=O)N1CCN(C(=O)Cc2c(C(=O)O)n(C)c3ccccc23)CC1	0.7%	16	1.8	0	-14	5	-2%
